Bioassay records: PubChem BioAssay, ICCB-Longwood Screening Facility, Harvard Medical School
MgrA-DNA mod: S. aureus MgrA-DNA binding modulation | AID 602314 | hit rate 0.13% among 84,000 | fluorescence polarization | inhibition, %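 (about 10 µg/mL by stock and volumes)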;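 active = above 50% in either of two replicates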;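 note: 0% = protein plus DNA without compound and 100% = DNA alone without protein; higher means less MgrA bound to DNA so lower polarization; one replicate is shown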
Sa helicase inh: S. aureus DNA helicase inhibition. purified S. aureus helicase, fluorescence unwinding assay; about half of the hits fall short of the stated cut. inhibition, %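 (tested at about 80 µM)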. hit rate 0.05% among 120,000;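 active = both duplicates at 50% or more, or one of them with a favoured structure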;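 note: 0% = mean of negative control wells and 100% = mean of positive control wells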
Starred values were filed as active, the others as inactive; nt = not tested or not shown. Not all compounds are listed. The share of hits here may be higher or lower than overall.

MgrA-DNA mod	Sa helicase inh	canonical_smiles
1.6	14	O=C(OCc1ccccc1)Sc1nc2ccccc2o1
3.2	-5	CCOc1ccc(C(=O)NN2C(=O)c3ccccc3C2=O)cc1
nt	22	Cc1oc2ccc(O)c(CN3CCCCC3)c2c1C(=O)NCc1ccccc1
nt	-17	Cc1ccc(-c2[nH]c3ccccc3c2SCCN)cc1
0.7	2	CCCCn1c(SCC(=O)N2c3ccccc3Sc3ccccc32)nc2c1c(=O)n(C)c(=O)n2C
nt	5	C=CCNC(=O)COc1ccc(C)cc1
nt	17	CSC1=C(C#N)C(c2ccc(C(C)C)cc2)C2=C(CCCC2=O)N1 (stereo unspecified)
nt	21	Cc1ccc(C2=NN(C(=O)COc3cccc(-n4cnnn4)c3)C(c3ccco3)C2)cc1 (stereo unspecified)
nt	28	CN1CCN(C(c2ccccn2)c2c(-c3ccccc3)n(O)c3ccccc23)CC1 (stereo unspecified)
nt	19	C=CCOc1ccccc1/C=C1/SC(N2CCN(C)CC2)=NC1=O
nt	-12	Cn1cccc1C(=S)N=P(N1CCOCC1)(N1CCOCC1)C(C)(C)C
nt	-15	Cc1c(-c2ccccc2)sc(NC(=O)C2CC(=O)N(Cc3ccco3)C2)c1C(=O)N1CCOCC1 (stereo unspecified)
nt	4	CCCCN(C)C(=O)Cn1nc(CC)n2c(cc3sccc32)c1=O
nt	8	CC1=CC(=O)C(N2CCN(C(c3ccccc3)c3ccccc3)CC2)=CC1=O
nt	-6	N#C/C(=C(/O)CSc1nnc(N)s1)c1nc2ccccc2s1
-1.0	nt	O=C(Cc1ncon1)Nc1ccc(F)cc1F
0.4	1	O=c1cc(N2CCc3ccccc3C2)[nH]c(=O)n1Cc1ccc(F)cc1
-2.5	nt	COC(=O)C1=C(C)NC(C)=C(C(=O)OC)C1c1ccc(-c2ccccc2C(F)(F)F)o1
nt	-15	O=C(Nc1nnc(-c2ccccc2)o1)C(c1ccccc1)c1ccccc1
nt	17	O=C(Cn1ccc(=O)[nH]c1=O)OCc1c(Cl)cccc1Cl
nt	-13	CCn1c(=O)c(=O)[nH]c2cc(C(=O)NCC(c3ccc(OC)cc3)N(C)C)ccc21 (stereo unspecified)
3.8	11	Cn1c2ccccc2c2cc(C3Nc4ccccc4C(=O)N3O)ccc21 (stereo unspecified)
nt	17	CSc1nc2c(c(=O)n1Cc1ccccc1)SC(C)C2 (stereo unspecified)
nt	10	N#CC1=C(S)N(c2ccccc2)C(c2ccc(-c3cccc(Cl)c3)o2)NC1=O (stereo unspecified)
3.4	3	O=C(O)C1CC(c2ccccc2)=C(c2ccccc2)CC1C(=O)c1ccccc1 (stereo unspecified)
-0.2	11	COc1ccc(NC(=O)[C@H](CCS(C)(=O)=O)N2Cc3ccccc3C2=O)cc1Cl
nt	9	Cc1ccc(CN(C)CC(=O)Nc2ccc3c(c2)OCCCO3)cc1
-0.1	5	O=C(NC1CCCC1)C(c1ccccc1)N(Cc1ccc2c(c1)OCO2)C(=O)c1ccco1 (stereo unspecified)
0.0	-5	O=C(c1ccccc1)c1cn(Cc2ccccc2)c2ccccc2c1=O
1.0	5	CCN1/C(=C2\C(=O)N=C(C)N2c2ccccc2)C=Cc2ccc(C)cc21
1.9	6	CCCOC(=O)C(C)Oc1ccc2c(=O)c(-c3ccccc3Cl)coc2c1 (stereo unspecified)
nt	-5	COc1ccc(CNC(=O)Cc2csc(N3CCCC3=O)n2)cc1
2.9	nt	CCc1ccc(Nc2n[nH]c(=S)s2)cc1
0.6	nt	CCC(=O)N(C)/C=C1\Sc2ccccc2C1=O
-1.1	-6	O=C(c1cnoc1)c1cc(Cl)cc(Cl)c1O
-0.4	7	C#CCn1c(-c2nonc2N)nc2ccccc21
0.9	11	NC(=O)c1ccc(N2CCCCC2)c(N)c1
nt	-98	COc1ccc(C2=C/C(=C/c3ccc4c(c3)OCO4)C(=O)O2)cc1
-1.4	4	Cc1[nH]c2ccccc2c1Cc1nnc(SCC(N)=O)n1Cc1ccco1
0.9	4	COC(=O)c1ccc(C2N(Cc3ccc(F)cc3)CCCN2Cc2ccc(F)cc2)cc1
-1.1	nt	COC(=O)c1ccccc1Sc1nc2ccc(Cl)cc2s1
-3.0	1	Cc1nc2cc(NS(=O)(=O)c3ccc(Oc4ccccc4)cc3)ccc2s1
nt	19	O=C(CSc1nc(-c2ccc3c(c2)OCO3)nc2cc(=O)[nH]n12)NCCc1nc2ccccc2[nH]1
2.6	3	COc1ccc(C(C)=CC(=O)C(C)(C)C)cc1
nt	-4	CCCc1c(NC(=O)Nc2ccc(F)cc2)cnn1-c1ccccc1

Part of the list above, with values under each structure:
Values run as follows: MgrA-DNA mod | Sa helicase inh
NC(=O)c1ccc(N2CCCCC2)c(N)c1
→ 0.9 | 11
COc1ccc(C2=C/C(=C/c3ccc4c(c3)OCO4)C(=O)O2)cc1
→ nt | -98
Cc1[nH]c2ccccc2c1Cc1nnc(SCC(N)=O)n1Cc1ccco1
→ -1.4 | 4
COC(=O)c1ccc(C2N(Cc3ccc(F)cc3)CCCN2Cc2ccc(F)cc2)cc1
→ 0.9 | 4
COC(=O)c1ccccc1Sc1nc2ccc(Cl)cc2s1
→ -1.1 | nt
Cc1nc2cc(NS(=O)(=O)c3ccc(Oc4ccccc4)cc3)ccc2s1
→ -3.0 | 1
O=C(CSc1nc(-c2ccc3c(c2)OCO3)nc2cc(=O)[nH]n12)NCCc1nc2ccccc2[nH]1
→ nt | 19

Continued:
MgrA-DNA mod	Sa helicase inh	canonical_smiles
-1.8	nt	CCOC(=O)c1ccc(N2CCOCC2)c(NC(=O)c2c(-c3ccccc3)noc2C)c1
-4.0	5	Cn1c(C(=O)Nc2ccc(C(=O)N3CCCC3)cc2)cc(=O)n(C)c1=O
nt	7	COCCn1c(C)cc(/C=N/n2c(-c3ccccc3C)n[nH]c2=S)c1C
nt	26	Cc1ccc(NC(=O)CC2NCCN(Cc3ccccc3)C2=O)cc1 (stereo unspecified)
-1.2	nt	CCN(CC)S(=O)(=O)c1ccc(-c2csc(C)n2)s1
nt	-5	CCOc1cc(-c2nn3c(C(C)(C)C)nnc3s2)cc(OCC)c1OCC
-1.9	-2	Cn1nc(-c2ccc(C(=O)N3CCN(CCO)CC3)cc2)c2ccccc2c1=O
1.8	3	O=C(NC1C2CC3CC(C2)CC1C3)c1cc2ccccc2o1 (stereo unspecified)
nt	3	CC(=O)N=C(N=Nc1c(O)[nH]c2ccccc12)NC(C)=O
-0.9	nt	Clc1cc(N2CCOCC2)nc(-c2ccccc2)n1
-2.2	nt	CCOC(=O)c1c(C)n(C)c2c1cc(OC(=O)c1ccc(C)cc1)c1ccccc12
0.8	nt	Cc1ccc2sc(C(=O)O)cc2c1
nt	0	Cc1ccc(C(=O)N/N=c2\oc3ccccc3cc2C(N)=O)cc1
-1.0	nt	O=C(O)C(Cc1ccccc1)NCc1ccccc1O (stereo unspecified)
nt	-3	CC(C)NC(=O)/C=C/c1ccco1
-0.1	1	COc1ccc(-c2csc3nc[nH]c(=O)c23)cc1OC
1.6	-6	NC(=O)CN(C1CCCCC1)S(=O)(=O)c1ccc(Br)cc1
nt	-24	O=C(CN1C(=O)CCC1=O)NCc1ccc2c(c1)OCO2
1.2	-1	N#CC(c1ccccc1)c1cn2cc(Br)ccc2n1 (stereo unspecified)
nt	-18	CCN(CC(=O)Nc1ccc(OC)cc1)Cc1nc2sc(C(=O)OC)c(C)c2c(=O)[nH]1
4.2	12	O=C(O)COc1ccccc1C=C1C(=O)c2ccccc2C1=O
0.9	6	c1ccc(NCc2ccncc2)cc1
-2.2	nt	Cc1ccc(CSc2nc(C)c(Oc3cccc(C(F)(F)F)c3)c(=O)n2C)cc1
nt	-14	Cc1ccc(-c2csc(NC(=O)c3cccs3)n2)cc1C
-5.7	6	COc1ccc(SCCc2ccncc2)cc1
4.0	nt	CC(C)(C)OC(=O)N1CCN(Cc2ccccc2)CC1
-2.9	nt	CCOc1cc(C2C(C(=O)OC(C)C)=C(C)NC3=C2C(=O)CC(c2ccccc2)C3)ccc1OC(C)=O (stereo unspecified)
0.5	16	O=C1OCCN/C1=C/C(=O)c1ccc(Cl)cc1
nt	-3	CCCCn1c(=O)n(CC(=O)c2[nH]c(C)c(C(=O)OCC)c2C)c(=O)c2c1ncn2Cc1ccco1
nt	-15	CC(=O)Nc1ccc(Br)c(OC(F)F)c1
-1.7	nt	CCOC(=O)c1c(C)n(-c2ccccc2)c2c1cc(OC(=O)c1ccc(OC)cc1)c1ccccc12
nt	11	O=C(NCN1CCOCC1)c1cccnc1
nt	-24	CN(C(=O)c1nn(C)c2c1CSc1ccccc1-2)c1ccccc1
nt	8	CCOC(=O)C1(C(=O)OCC)Oc2c(OC)cccc2C1O (stereo unspecified)
nt	8	CC(=O)N(c1ccccc1)c1nc(CSc2nnc(-c3ccc(C)cc3)o2)cs1
-1.0	16	Cc1ccc(Nc2nc(N)nc(CSc3ncccn3)n2)cc1
-2.1	nt	COc1cccc(NC(=O)C2COc3ccccc3O2)c1 (stereo unspecified)
-2.2	nt	FC(F)(F)c1cccc(-c2csc(-c3ccc(-n4cncn4)nc3)n2)c1
-0.7	9	CCn1nc(C(C)C(=O)O)c2ccccc2c1=O (stereo unspecified)
-0.3	nt	CC(NCc1ccccc1)c1ccco1 (stereo unspecified)
nt	-11	O=C(COC(=O)Cc1c[nH]c2ccccc12)Nc1ccc(S(=O)(=O)N2CCCC2)cc1
nt	-3	CCNC(=O)c1cccc(N)c1
2.0	7	COc1ccc(NC(=O)c2cccnc2N2CCCC2)cc1
nt	-7	CC(=O)N1c2ccc(S(=O)(=O)N3CCC(C(=O)N4CCN(c5cc(Cl)ccc5C)CC4)CC3)cc2CC1C (stereo unspecified)
2.2	nt	CC(=O)N1N=C2c3ccccc3CCC2C1c1cccs1 (stereo unspecified)
0.2	9	O=C(Cn1ncc2ccc(Cl)cc21)N1CCCCC1
-3.3	3	COC(=O)c1cc(C(=O)OC)c(C(=O)OC)cc1C(=O)OC
nt	5	Cc1cc(Nc2ccccc2)n(-c2ccc(C(=O)O)cc2)n1
0.9	2	COC(=O)C(O)(CC(=O)Nc1ccc(OC(F)(F)F)cc1)C(F)(F)F (stereo unspecified)
nt	-26	CCCCS(=O)(=O)Nc1ccc(C)cn1
0.6	nt	Cc1nc(SCC(=O)NC2CCCCC2)c2c3c(sc2n1)CCCC3
nt	10	COC(=O)c1sc2ccccc2c1NC(=O)C1CCCCC1
nt	0	CCCCCc1ccc(-c2ccc(C(=O)O)cc2)nc1
nt	-32	CCN(CC)c1ccc2nnc(CCC(=O)N3CCCC3)n2n1
nt	16	CCSc1nnc(NC(=O)CSc2ncccn2)s1
2.5	7	O=C(Cc1ccccc1)NN1C(=O)CSC1=S
0.2	8	CCc1ccc(CN2C(=O)c3ccccc3C2C(=O)NCC2CCCO2)cc1 (stereo unspecified)
nt	-21	O=C(O)c1cccc(NCc2ccc(Cl)cc2)c1
-1.7	4	Cc1cn(CCOc2ccc(Cl)cc2)c(=O)[nH]c1=O
nt	0	O=C(O)/C(=C\c1ccc(-c2ccc(F)cc2)o1)c1ccccc1

Profiles, quoted from the list. Order of values: MgrA-DNA mod, Sa helicase inh
O=C(O)/C(=C\c1ccc(-c2ccc(F)cc2)o1)c1ccccc1 is listed as nt, 0
CCCCS(=O)(=O)Nc1ccc(C)cn1 is listed as nt, -26

More entries follow:
MgrA-DNA mod	Sa helicase inh	canonical_smiles
nt	0	Cc1ccc(NCc2c[nH]c3ccccc23)cc1
2.9	nt	C=CCn1c(SCC(=O)NCCCO)nc2sc3c(c2c1=O)CCC3
nt	15	Cc1ccccc1NC(=O)c1ccc2c(SCC(=O)O)c3c(nc2c1)CCC3
nt	-3	Cc1ccc(Cn2c(=O)c3ccccc3n3c(SCC#N)nnc23)cc1
2.1	7	COC(=O)C1=C(C)N(c2ccc(C(C)C)cc2)C(=O)C1
0.7	nt	Cc1c(-c2csc(-c3ccc(Cl)cc3)n2)sc2ccccc12
-0.8	nt	CC(/C=N/N1C(=O)c2ccccc2C1=O)c1ccccc1 (stereo unspecified)
-0.4	4	c1ccc(CNCc2ccc3c(c2)OCCO3)cc1
0.0	7	CCOC(=O)c1sc2ncn(/N=C/c3cccnc3)c(=O)c2c1C
3.8	10	O=C(Cn1nc(C(F)(F)F)c2c1CCC2)N1CCCC1
-0.8	3	N#CSc1ccc(N2CCCCC2)cc1
0.6	9	Cc1noc(C)c1S(=O)(=O)N1c2ccccc2CC1C (stereo unspecified)
0.6	nt	CC(=O)OCC(=O)[C@@]1(O)[C@H](OC(C)=O)CC2C3CCC4=CC(=O)C=C[C@]4(C)[C@@]3(F)[C@@H](O)C[C@@]21C (stereo partly specified)
1.6	12	COC(=O)CN1C(c2ccccc2)=Nc2ccc(C)cc2C1c1ccccc1 (stereo unspecified)
2.6	4	CC(C(=O)Nc1ccc(F)cc1)n1nnc2ccccc2c1=O (stereo unspecified)
nt	2	OC(C#CCN1CCCCC1)c1ccccc1 (stereo unspecified)
-0.1	1	CC1=C(C(=O)OC(C)C)C(c2cn(-c3ccccc3)nc2-c2ccc(OC(C)C)cc2)NC(=O)N1 (stereo unspecified)
0.0	nt	COc1ccc(C2CC(c3ccc4ccccc4c3)=NN2C)cc1 (stereo unspecified)
nt	16	O=C(CCCN1C(=O)C2C3C=CC(C3)C2C1=O)N1CCN(c2ccccc2F)CC1 (stereo unspecified)
nt	-23	COC(=O)CCN1C(=O)/C(=C/c2ccccc2)SC1=S

5 entries out of the list, sorted by number of heavy atoms, lowest first.
MgrA-DNA mod	Sa helicase inh	canonical_smiles
-0.7	9	CCn1nc(C(C)C(=O)O)c2ccccc2c1=O (stereo unspecified)
nt	7	COCCn1c(C)cc(/C=N/n2c(-c3ccccc3C)n[nH]c2=S)c1C
nt	-13	CCn1c(=O)c(=O)[nH]c2cc(C(=O)NCC(c3ccc(OC)cc3)N(C)C)ccc21 (stereo unspecified)
nt	-11	O=C(COC(=O)Cc1c[nH]c2ccccc12)Nc1ccc(S(=O)(=O)N2CCCC2)cc1
nt	21	Cc1ccc(C2=NN(C(=O)COc3cccc(-n4cnnn4)c3)C(c3ccco3)C2)cc1 (stereo unspecified)
